Source: PubChem
Cruzain noTriton = blocks cruzain activity in detergent-free assay. P25779. purified cruzain, Z-FR-AMC fluorescence, no detergent. Potency, µM, for the others: max response, negative = inhibition, most hits filed as inhibitors. 200,000 tested, 2.3% active;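 note: plate controls were enzyme without inhibitor for no effect and buffer without enzyme for full effect; nearly all actives have a fitted effect of over 40% in size; top concentration of the series not given in the record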
Target sequence (P25779 123-467 limits assumed): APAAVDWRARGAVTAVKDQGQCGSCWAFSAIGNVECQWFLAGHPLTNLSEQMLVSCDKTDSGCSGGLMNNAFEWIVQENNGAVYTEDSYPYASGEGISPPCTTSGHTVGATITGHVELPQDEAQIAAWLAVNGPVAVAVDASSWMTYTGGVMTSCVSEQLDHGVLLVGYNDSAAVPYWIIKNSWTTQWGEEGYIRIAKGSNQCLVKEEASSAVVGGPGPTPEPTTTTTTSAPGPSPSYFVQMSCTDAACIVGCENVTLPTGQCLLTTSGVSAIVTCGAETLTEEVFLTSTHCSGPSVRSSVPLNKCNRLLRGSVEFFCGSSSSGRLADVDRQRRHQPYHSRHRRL
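Purified cruzain at 1.5 nM, pre-incubated 15 min with compound at room temperature in 100 mM sodium acetate pH 5.5, 5 mM DTT, 0.00005% Triton X-100. Reaction started with 2 uM Z-FR-AMC; AMC fluorescence increase over 60 s gives rate.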
MARV entry inh = Marburg virus entry inhibition; 300,000 tested, 1.8% active; Potency, µM (highest dose often 37.8 µM), without a hit: top-dose activity change, negative = inhibition, most hits filed as inhibitors; Marburg virus pseudotyped entry inhibition, cell reporter; control for the full effect not named in the record; about a third of the inactives were read at about 46 µM; active = well fitted inhibition curve with a large enough effect; inconclusive = small, poorly fitted or top-dose-only effect, or effect the other way; inactive = flat fitted curve, though single readings scatter; tested in HEK293 cells; about a fifth of its hits are not listed in these tables; note: % is set by controls: 0 for no effect and ±100 for the full control effect; luciferase read-out
SARS PLpro yeast = inhibitors of SARS-CoV papain-like protease in yeast; S. cerevisiae expressing SARS-CoV PLpro, growth rescue; control for the full effect not named in the record; 330,000 tested, 0.19% active; Potency, µM (titrated, usually from 32.9 µM), for the others: at the highest dose activity, positive = growth rescue; AID 485353; active means well fitted rising curve with a large enough effect; inconclusive means small, poorly fitted or top-dose-only effect; inactive means no such curve, though single readings can be large or run the other way; note: 0% is about no effect; nearly all actives have a fitted effect of over 55% in size; growth read by luminescence after 48 h
2A StopGo = FMDV 2A StopGo reporter, luciferase signal; Potency, µM (highest dose often 57.9 µM), for the others: top-dose signal change, negative = less light; 410,000 tested, 1.2% active; human cells with a luciferase reporter of 2A StopGo recoding; control for the full effect not named in the record; active = well fitted falling curve with a large enough effect; inconclusive = small, poorly fitted or top-dose-only effect; inactive = no such curve, though single readings can be large or run the other way; tested in HEK293T cells; note: % is set by controls: 0 for no effect and ±100 for the full control effect; nearly all actives have a fitted effect of over 45% in size; luciferase light after 4 h
NS1 inh = inhibitors of influenza NS1 protein function | S. cerevisiae slowed by influenza A NS1, growth recovery by OD600 | Potency, µM (doses to about 46.1 µM), for inactives: at the top dose activity, positive = more growth | 270,000 tested, 0.4% active | AID 2326; active means well fitted rising curve with a large enough effect; inconclusive means small, poorly fitted or top-dose-only effect; inactive means no such curve, though single readings can be large or run the other way; note: nearly all actives have a fitted effect of over 50% in size
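Compounds were scored for reversing the slow growth caused by influenza A NS1 in S. cerevisiae, measured by optical density at 600 nm. Assay medium contained 2% galactose at pH 6.0; NS1-free yeast of the same strain were the positive control.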
RE007 growth inh = less growth of the S. pombe RE007 Vpr strain; Potency, µM (highest dose often 92.2 µM), for inactives: at the top dose activity change, negative = less growth; 360,000 tested, 0.21% active; S. pombe RE007 Vpr strain, BacTiter-Glo ATP luminescence, 24 h; control for the full effect not named in the record; active = well fitted falling curve with a large enough effect; inconclusive = small, poorly fitted or top-dose-only effect; inactive = no such curve, though single readings can be large or run the other way;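 note: % is set by controls: 0 for no effect and ±100 for the full control effect; nearly all actives have a fitted effect of over 50% in size; the assay follows cell death caused by Vpr and the record does not say whether a fall means rescue or toxicity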
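Fission yeast RE007 carrying one integrated HIV-1 vpr copy, seeded at OD 0.01 in PMG+AL medium with 23 nL pinned compound. Grown 24 h at 30 degrees; viability read by BacTiter-Glo luminescence after 5 min.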
Cruzain inh Det = inhibitors of Trypanosoma cruzi cruzain with detergent; purified cruzain, Z-FR-AMC fluorescence, 0.01% Triton; Potency, µM, inactives show max response, negative = inhibition, actives largely listed as inhibitors; 200,000 tested, 0.43% active;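 note: plate controls were neutral wells for no effect and buffer without enzyme for full effect; nearly all actives have a fitted effect of over 40% in size; top concentration of the series not given in the record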
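Cysteine protease activity tested under reducing, mildly acidic conditions (100 mM sodium acetate pH 5.5, 5 mM DTT) plus 0.01% Triton X-100. Cruzain 1.5 nM; substrate Z-FR-AMC 2 uM; 15 min compound preincubation at room temperature.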
Lassa entry inh = blocks Lassa virus binding to or entry into cells | Potency, µM (titrated, usually from 37.9 µM), inactives show at the top dose activity change, negative = inhibition, most hits filed as inhibitors | AID 540256 | Lassa virus pseudotype entry inhibition, cell reporter; control for the full effect not named in the record | 300,000 tested, 1.2% active; active means well fitted inhibition curve with a large enough effect; inconclusive means small, poorly fitted or top-dose-only effect, or effect the other way; inactive means flat fitted curve, though single readings scatter; tested in HEK293 cells; note: % is set by controls: 0 for no effect and ±100 for the full control effect; nearly all actives have a fitted effect of over 50% in size; luciferase read-out
An asterisk follows results filed as active; ? = inconclusive; . = not tested or not shown; [ ] = remark or other dose. Unless noted, calls come from the whole dose curve; as a rule, active = well fitted curve in the direction sought with a large enough effect; inconclusive = small, poorly fitted or top-dose-only effect, or another doubt; inactive = no such curve, though single readings can be large; an effect the other way counts as inactive or inconclusive. Potency is the fitted concentration of half-maximal effect. An unsorted share of the library; any-hit rate near 4.6%.

SMILES | Lassa entry inh | MARV entry inh | Cruzain inh Det | SARS PLpro yeast | RE007 growth inh | NS1 inh | 2A StopGo | Cruzain noTriton
CCc1ccc(-c2nn(CC(=O)Nc3ccccc3)c3c2cnc2ccc(F)cc23)cc1 | 16%[46.1 µM] | . | -0.3% | . | . | . | 58%[activator] | -22%
CCc1cccc(C)c1NC(=O)Cn1nc(C)c2nn(-c3ccc(Cl)cc3)c(C)c2c1=O | -24%[46.1 µM] | . | 0.9% | . | . | . | -24% | ?
O=C(NNC(=O)c1ccc2ncccc2c1)c1ccc(Cl)cc1 | -27% | -4% | . | -1% | -15% | 3% | -3% | .
CCOC(=O)C1CCN(C(=O)CCC(=O)NNc2nc3ccccc3c3nc(C)nn23)CC1 | . | . | . | -1% | -19% | 5% | -2% | .
O=S(=O)(c1ccc2oc(=S)[nH]c2c1)N1CCCCC1 | . | . | . | 0% | -1% | 3% | -9% | .
CCCCCC1CC(COc2ccccc2)OC1=O (stereo not drawn) | -11%[46.1 µM] | -5%[46.1 µM] | . | 0% | -10% | -3% | -5% | .
Cc1ccc(S(=O)(=O)Nc2nc(C)c(C(=O)Nc3ccccc3)s2)cc1 | 9% | 1% | -5.5% | 2% | 9% | 5% | 53%[activator] | 3%
COc1ccc(CCNC(=S)Nc2cccc3ccccc23)cc1 | 1% | -17% | -9.4% | -20% | -10% | -43% | 21% | -17%
COc1cc(OC)cc(-c2nc(SCC(=O)Nc3ccccc3F)n[nH]2)c1 | . | . | . | 2% | 7% | -4% | -16% | .
N#CC1=C(N)N(c2ccccc2)C2=C(C(=O)CCC2)C1c1ccccc1 (stereo not drawn) | 5% | ? | -5.4% | 5% | -10% | 7% | -6% | -17%
O=C(O)c1cccc(S(=O)(=O)Nc2ccccc2-c2ccccc2)c1 | . | . | . | 0% | 3% | 6% | -5% | .
COc1ccc(NC(=O)CSC2CC(=O)N(c3ccc4c(c3)OCCO4)C2=O)cc1 (stereo not drawn) | 6% | 0% | 0.0% | -12% | 18% | -14% | 5% | -5%
O=C(c1ccc2snnc2c1)N1CCOCC1 | -13% | 16% | 1.4% | 1% | -7% | 2% | . | 10%
CCOc1ccc(CCNC(=O)COC(=O)C2CCN(S(=O)(=O)c3ccc(C)c(C)c3)CC2)cc1OCC | -1% | 10% | . | 18% | 26% | 0% | -11% | .
O=C(CSc1nnnn1-c1cccc2ccccc12)Nc1ccc(N2CCOCC2)c(Cl)c1 | -30%[14.3 µM] | -2% | -1.8% | 5% | 8% | 11% | 5% | ?
C[C@]12CCC(=O)C=C1CCC1C2CC[C@@]2(C)C1CC[C@]2(C)O (stereo partly drawn) | ? | ? | . | -5% | 0% | . | -20% | .
C=CCN(c1ccc(C(=O)Nc2ccc3c(c2)OCO3)cc1)S(C)(=O)=O | 2% | 22%[46.1 µM] | . | 1% | -2% | 6% | 4% | .
Cc1cc(C)cc(NC(=O)C2CCCN(S(=O)(=O)c3cccc4nsnc34)C2)c1 (stereo not drawn) | 0%[46.1 µM] | 22%[46.1 µM] | -2.4% | . | . | . | -6% | -1%
COC(=O)c1scc(C)c1NC(=O)CSc1ccc(Cl)cc1 | -17% | ? | . | 0.71µM* | 0% | -3% | ? | .
Cc1ccc(C(=O)O/N=C(\c2ccccc2)c2ccncc2)cc1 | -16% | ? | . | -3% | -7% | . | -11% | .
Cc1csc(SCC(=O)N(C)c2c(N)n(Cc3ccccc3)c(=O)[nH]c2=O)n1 | . | . | . | -12% | 1% | 2% | -11% | .
O=C(NCc1ccc(F)cc1)c1noc2c1CCCCC2 | 3% | ? | -2.3% | 3% | -7% | -17% | 32%[activator] | 0%
O=C(CN1CCOCC1)Nc1nc2ccc(Br)cc2s1 | 15% | 18% | -13% | -15% | -9%[3.69 µM] | -2% | 13% | -7%
Cc1nn(C)c(C)c1NC(=O)/C(C#N)=C\N(C)C | 20% | 5% | . | 1% | 18% | 7% | -4% | .
CC(=O)C1=C(C)Nc2ncnn2C1c1ccccc1F (stereo not drawn) | -8%[46.1 µM] | ? | . | 0% | 8% | 4% | -12% | .
CC(C)=C(NC(=O)c1ccco1)C(=O)NCCc1nc2ccccc2[nH]1 | 5% | 10% | -2.4% | 6% | 6% | 2% | -8% | -28%
CC(=O)Nc1scc(-c2ccccc2)[n+]1-c1ccc(C)cc1 | 13%[46.1 µM] | -15%[46.1 µM] | . | -4% | 6% | . | ? | .
Cc1cc(C)cc(N(CC(=O)NC2CCCC2)C(=O)CNC(=O)c2ccco2)c1 | 7% | -16%[46.1 µM] | . | -3% | 14% | 12% | -14% | .
COC(=O)c1c(NC(=O)c2ccccc2)sc(C(=O)c2ccccc2)c1C | -3% | 1% | -4.7% | 1% | 26% | 14% | ? | ?
CSc1nc(-c2ccccc2)c(C#N)c(=O)n1C | 1% | 9% | . | 0% | -5% | -41% | -18% | .
CC1CCCCN1CCCNC(=O)c1ccc(NC(=O)C2=CSCCO2)cc1 (stereo not drawn) | . | . | . | -1% | 3% | 7% | ? | .
O=C(NCCOCCNC(=O)OCc1ccccc1)OCc1ccccc1 | -7% | -2%[14.2 µM] | . | 2% | 1% | . | -4% | .
CS(=O)(=O)c1ccc(Cl)c(NC(=O)COC(=O)c2cccc(S(=O)(=O)N3CCCC3)c2)c1 | 8% | 13%[46.1 µM] | . | 1% | -4% | . | -12% | .
Cc1cc(-c2nnc(SCC(=O)Nc3cccc(F)c3)n2N)n[nH]1 | 29%[46.1 µM] | 13%[46.1 µM] | . | -3% | 1% | -5% | 0% | .
CCc1ccc(CN(C)Cc2nc(Cc3cccc(C(F)(F)F)c3)no2)nc1 | . | -2%[46.1 µM] | . | 2% | -5% | 0% | -12% | .
O=C(/C=C/c1ccc(OC(F)F)cc1)OCC(=O)N1CCN(C(=O)c2ccco2)CC1 | ? | -2% | -7.8% | -5% | -13% | 4% | ? | 0%
CC(C)(C)C(=O)N1CCC(O)(CS(=O)(=O)c2ccc(Cl)c(Cl)c2)CC1 | 3% | -33%[46.1 µM] | . | 2% | 3% | . | -19% | .
Cc1oc2c(c(C)cc3oc(=O)c(CC(=O)N[C@H](C(=O)O)C(C)C)c(C)c32)c1C | . | . | . | 0% | -12% | 8% | -19% | .
Cc1c(C(=O)Nc2cccc(Cl)c2)oc2ccc(S(=O)(=O)N3CCC4(CC3)OCCO4)cc12 | ? | ? | -1.5% | -4% | 10% | 11µM* | 0% | 3%
O=C(Nc1nc(-c2ccc3c(c2)OCO3)cs1)C1CC1 | . | . | -5.3% | -13% | 18% | -53% | 59%[activator] | 1%
COc1ccccc1-n1c(C)nnc1SCC(=O)NCc1ccccc1 | 0% | 6% | 5.2% | -8% | -6% | -3% | . | -4%
NC(=O)Cc1nc2scc(-c3ccc(Cl)cc3)c2c(=O)[nH]1 | -28%[46.1 µM] | -19% | . | 0% | 4% | 4% | -29% | .
COc1ccccc1N1CCN(S(=O)(=O)c2c(C)sc3ncn(CC(=O)N(C)c4ccc(C(C)C)cc4)c(=O)c23)CC1 | -26%[46.1 µM] | 23%[46.1 µM] | -4.6% | . | . | . | 0% | 23%
O=C(O)CCCN1C(=O)NC2NC(=O)NC21 (stereo not drawn) | ? | -1% | 4.4% | -2% | -22% | -6% | -15% | 2%
O=C(O)c1ccc(NCc2cccnc2)cc1 | 12% | -2% | 6.5% | -8% | -3% | 4% | 2% | -7%
COc1ccc(NC(=O)N2CCCC2C(=O)NCCc2ccccc2)cc1 (stereo not drawn) | . | . | . | -3% | 0% | -9% | 21% | .
CCOC(=O)c1cn2c(C)cccc2n1 | ? | 10%[46.1 µM] | . | 2% | -14% | . | -3% | .
Cc1cc(OCC(=O)NNC(=O)c2cccs2)ccc1Br | 14%[46.1 µM] | 6%[46.1 µM] | . | -1% | -7% | 3% | 0% | .
Cc1ccc(NC(=O)NC2CC(=O)N(c3ccc4c(c3)OCCO4)C2)c(C)c1 (stereo not drawn) | 0% | -5%[46.1 µM] | . | -3% | 4% | . | -6% | .
CC(=O)c1ccc(NC(=O)Cn2cnc(S(=O)(=O)N3CCCCC3)c2)cc1 | . | . | . | 0% | 19% | 5% | -9% | .

Ordered by number of heavy atoms (falling): 4 of the compounds above
SMILES | Lassa entry inh | MARV entry inh | Cruzain inh Det | SARS PLpro yeast | RE007 growth inh | NS1 inh | 2A StopGo | Cruzain noTriton
CCOC(=O)C1CCN(C(=O)CCC(=O)NNc2nc3ccccc3c3nc(C)nn23)CC1 | . | . | . | -1% | -19% | 5% | -2% | .
CC(C)(C)C(=O)N1CCC(O)(CS(=O)(=O)c2ccc(Cl)c(Cl)c2)CC1 | 3% | -33%[46.1 µM] | . | 2% | 3% | . | -19% | .
CSc1nc(-c2ccccc2)c(C#N)c(=O)n1C | 1% | 9% | . | 0% | -5% | -41% | -18% | .
O=C(O)CCCN1C(=O)NC2NC(=O)NC21 (stereo not drawn) | ? | -1% | 4.4% | -2% | -22% | -6% | -15% | 2%

Carrying on.
SMILES | Lassa entry inh | MARV entry inh | Cruzain inh Det | SARS PLpro yeast | RE007 growth inh | NS1 inh | 2A StopGo | Cruzain noTriton
COC(=O)N/N=C\c1cc2c(cc1Br)OCO2 | 6%[46.1 µM] | 5%[46.1 µM] | . | 1% | 16% | . | 11% | .
CC(=O)OCCN(CCCn1c(-c2ccncc2)nc2ccccc21)c1nc(-c2ccc(C)cc2)cs1 | . | . | . | -2% | -7% | 6% | ? | .
Cn1c(=O)c2c(nc(SCC(=O)Nc3ccc(F)cc3)n2Cc2ccccc2F)n(C)c1=O | 5%[46.1 µM] | 16%[46.1 µM] | 5.5% | . | . | . | -15% | -10%
CCOc1cc2[nH]c(=S)n(CCC(=O)NCc3ccc(OC)cc3)c(=O)c2cc1OCC | 14% | 3% | 3.5% | -1% | 17% | -9% | -6% | 21%
